# rRNA inh HTS: selective bacterial rRNA inhibition in E. coli. E. coli WT GFP vs humanized-ribosome RFP mutants, fluorescence, 24 h; stronger effect = lower value; DMSO median 0, no signal -100. GFP signal change (wild-type ribosome), % (test concentration not listed). 350,000 compounds, 1.6% hits. AID 720706;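 active = significant combined selectivity score with lowered wild-type GFP, culture density cut under 30%, mutant RFP and density less affected; inactive = any of these conditions unmet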; also: one replicate is shown; some compounds called inactive have numbers as strong as hits
# FGF22 binding: FGF22 (human) thermal shift binding | recombinant FGF22 thermal shift, SYPRO orange fluorescence; percent of sucrose octasulfate shift, DMSO zero | Q9HCT0 | 340,000 compounds, 1.5% hits | calls only at 9.99 µM;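 active = melting point raised past a set limit in the mean and every replicate; three in four hits are not shown here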
# Target sequence (Q9HCT0 whole entry, looked up): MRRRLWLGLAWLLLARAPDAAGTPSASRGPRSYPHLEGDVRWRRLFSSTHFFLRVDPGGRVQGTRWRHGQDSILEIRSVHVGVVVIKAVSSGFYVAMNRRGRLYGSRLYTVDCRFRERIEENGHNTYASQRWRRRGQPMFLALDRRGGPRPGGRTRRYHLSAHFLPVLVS
# rRNA inh HTS OD600: second read-out of rRNA inh HTS, no call of its own (marks repeat the call); OD600 change, %; measured here: OD600 growth;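 optical density of the mix in the first replicate; 0 = DMSO median and -100 = no signal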
# rRNA inh HTS RFP: second read-out of rRNA inh HTS, no call of its own (marks repeat the call); RFP signal change, %; measured here: RFP humanized mutant strains;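 first replicate; 0 = DMSO median and -100 = no signal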
# * hit, by the source's call; i = inactive; + = active, no number. A portion of the library (hit frequency here may not be typical).
rRNA inh HTS	rRNA inh HTS OD600	rRNA inh HTS RFP	FGF22 binding	smiles
4.2	6.0	-0.7	i	C[C@@H]1CN([C@H](C)CO)C(=O)c2cc(NS(=O)(=O)c3ccc(F)cc3)ccc2O[C@@H]1CN(C)Cc1ccc(C(=O)O)cc1
-3.6	5.4	-3.3	i	COc1ccccc1-c1cnc2c(c1)C(=O)N([C@H](C)CO)C[C@@H](C)[C@H](CN(C)Cc1ccc(C(=O)O)cc1)O2
5.4	3.3	0.9	i	CC(C)NC(=O)N1C[C@H]2[C@@H](c3ccccc31)[C@@H](CO)N2C(=O)c1ccncc1
2.2	2.4	0.5	i	C[C@@H]1CN([C@H](C)CO)C(=O)c2cc(NC(=O)CCC(F)(F)F)ccc2O[C@@H](C)CCCCO[C@@H]1CN(C)CC1CCCCC1
-3.2	-19.6	-8.6	i	CCCCNc1cccc2c1S(=O)(=O)N[C@@H](Cc1ccccc1)CO2
2.1	2.0	-2.5	i	O=C(C[C@H]1C=C[C@H](NC(=O)c2cccnc2)[C@H](CO)O1)NCc1ccc(Cl)c(Cl)c1
-2.3	-5.7	-0.3	i	COc1ccc(S(=O)(=O)Nc2ccc3c(c2)C(=O)N([C@@H](C)CO)C[C@H](C)[C@@H](CN(C)S(=O)(=O)c2cccs2)O3)cc1
-4.4	-7.0	0.4	i	Cc1ccc(S(=O)(=O)NCC[C@H]2CC[C@H](NC(=O)Nc3cccc(F)c3)[C@H](CO)O2)cc1
1.5	4.4	0.5	i	O=C(c1ccccn1)N1C[C@@H]2[C@H](c3ccccc31)[C@H](CO)N2CC1CCCC1
-58.3	-73.4	-22.4	i	O=C(C[C@H]1CC[C@H]2[C@@H](COC[C@H](O)CN2C(=O)Nc2ccc(Cl)c(Cl)c2)O1)NCc1ccc(F)cc1
1.8	-2.7	0.8	i	COc1ccccc1S(=O)(=O)N(C)C[C@H]1OCc2ccccc2-c2c(n(C)c3ccccc23)C(=O)N([C@@H](C)CO)C[C@H]1C
-9.1	-7.1	7.1	i	C[C@H]1CN([C@@H](C)CO)C(=O)c2cc(C#CC3CC3)cnc2O[C@@H]1CN(C)S(=O)(=O)c1cccc(F)c1
4.0	-24.4	8.3	i	Cc1cccc(-c2ccc([C@H]3[C@@H](CO)N4CCCCN(S(=O)(=O)c5cn(C)cn5)C[C@@H]34)cc2)c1
0.2	-2.8	1.6	i	C[C@H](CO)N1C[C@H](C)[C@H](CN(C)C(=O)C2CCCCC2)Oc2ncc(C3=CCCC3)cc2C1=O
-5.0	-11.3	-1.4	i	C[C@@H]1CN([C@@H](C)CO)C(=O)Cc2cc(NC(=O)Nc3cccc4ccccc34)ccc2O[C@@H]1CN(C)Cc1ccc(C(=O)Nc2ccccc2N)cc1
1.3	-7.1	3.4	i	CCCNC(=O)N[C@H]1C=C[C@@H](CC(=O)NC2CCCCC2)O[C@H]1CO
5.3	2.2	1.3	i	CN(C)CC(=O)N[C@H]1CC[C@H](CC(=O)NCCN2CCCCC2)O[C@@H]1CO
1.5	12.6	-3.2	i	C[C@@H]1CN([C@@H](C)CO)S(=O)(=O)c2ccc(Br)cc2O[C@@H]1CN(C)Cc1cncnc1
3.4	11.4	0.1	i	C[C@H]1CN([C@@H](C)CO)C(=O)c2cccc(NC(=O)Nc3ccc(C(F)(F)F)cc3)c2O[C@H]1CN(C)C(=O)NC1CCCCC1
-1.7	-3.2	-0.8	i	COc1cccc(C(=O)Nc2ccc3c(c2)C(=O)N(C)C[C@H](OC)[C@@H](C)CN(C)[C@@H](C)CO3)c1
0.3	5.7	-3.4	i	Cc1noc(C)c1NC(=O)N(C)C[C@H]1Oc2ccc(NC(=O)c3ccncc3)cc2C(=O)N([C@H](C)CO)C[C@H]1C
3.6	11.0	-5.2	i	C/C=C/c1cnc2c(c1)C(=O)N([C@H](C)CO)C[C@@H](C)[C@H](CN(C)C(=O)NC1CCCCC1)O2
-0.1	11.3	-2.4	i	CCCNC(=O)N1C[C@@H]2[C@H](c3ccccc31)[C@@H](CO)N2Cc1ccc2c(c1)OCO2
4.4	6.5	-1.4	i	CC(C)C#Cc1cnc2c(c1)C(=O)N([C@H](C)CO)C[C@H](C)[C@H](CN(C)C(=O)CN1CCOCC1)O2
1.2	7.7	1.3	i	COc1ccc(S(=O)(=O)N2CC[C@@H]3[C@H](CO)Nc4ccc(C#Cc5cccc(OC)c5)cc4[C@@H]32)cc1
-6.2	-16.0	3.2	i	O=C(C[C@H]1CC[C@@H]2[C@H](COC[C@H](O)CN2Cc2cc(F)ccc2F)O1)NCc1ccccc1
-5.3	2.1	-1.1	i	COc1cccc(S(=O)(=O)N(C)C[C@@H]2Oc3ncc(-c4cccc(C(=O)N(C)C)c4)cc3C(=O)N([C@@H](C)CO)C[C@H]2C)c1
2.5	12.9	0.5	i	N#C[C@@H]1[C@@H](c2ccccc2)[C@H](CO)N1S(=O)(=O)c1cccc(F)c1
-5.1	-13.2	9.9	i	COc1ccc(CN(C)C[C@@H]2Oc3ccc(NC(=O)Nc4ccccc4)cc3CC(=O)N([C@@H](C)CO)C[C@@H]2C)cc1
3.1	8.0	-0.5	i	C[C@@H]1CCCCO[C@@H](CN(C)S(=O)(=O)c2cccs2)[C@@H](C)CN([C@@H](C)CO)C(=O)c2cc(NC(=O)Nc3ccc(F)cc3)ccc2O1
-8.0	-1.5	-1.7	i	O=C(Nc1ccc2c(c1)[C@@H]1C[C@H](CC(=O)N3CCc4ccccc4C3)O[C@@H](CO)[C@@H]1O2)NC1CCCC1
-0.9	-2.6	-2.6	i	C[C@@H]1CN([C@@H](C)CO)C(=O)c2cc(Br)cnc2O[C@@H]1CN(C)CC1CCCC1
-0.1	6.1	1.7	i	COc1ccccc1NC(=O)N(C)C[C@@H]1OCc2ccccc2-c2c(n(C)c3ccccc23)C(=O)N([C@@H](C)CO)C[C@H]1C
1.1	-12.4	0.0	i	Cc1cccc(-c2ccc([C@H]3[C@H]4CN(S(=O)(=O)c5cn(C)cn5)CCCCN4[C@H]3CO)cc2)c1
-32.3	-63.2	21.7	i	Cc1ccccc1-c1ccc2c(c1)O[C@H](CN(C)Cc1ccncc1)[C@H](C)CN([C@@H](C)CO)S2(=O)=O
-4.2	-11.4	3.8	i	COCC#Cc1ccc2c(c1)O[C@@H](CN(C)S(=O)(=O)c1cccc(OC)c1)[C@H](C)CN([C@@H](C)CO)S2(=O)=O
-0.1	-1.3	-1.7	i	C[C@@H]1CN([C@H](C)CO)C(=O)c2cc(C3=CCCCC3)cnc2O[C@@H]1CN(C)Cc1cccnc1
1.5	0.5	-0.1	i	C[C@H]1CN([C@@H](C)CO)C(=O)c2cccc(NS(=O)(=O)c3ccc(F)cc3)c2O[C@@H]1CN(C)C(=O)Nc1ccccc1
0.1	0.9	-1.1	i	N#C[C@H]1[C@@H](c2ccc(C#Cc3ccccc3F)cc2)[C@H](CO)N1C(=O)C1CCC1
1.2	-2.7	-0.2	i	CNC[C@@H]1OCCCC[C@H](C)Oc2ccc(NC(=O)NC(C)C)cc2C(=O)N([C@@H](C)CO)C[C@@H]1C
-3.6	5.0	7.3	+	Cc1cccc(S(=O)(=O)N2CCCCN3[C@@H](CO)[C@@H](c4ccc(C#C[C@H](C)O)cc4)[C@@H]3C2)c1
0.1	0.4	0.1	i	C[C@@H]1CN([C@@H](C)CO)C(=O)CCCn2nncc2CO[C@@H]1CN(C)Cc1ccc(C(=O)Nc2ccccc2N)cc1
-7.0	-11.3	-2.8	i	C[C@@H]1CN([C@@H](C)CO)C(=O)c2cccc(NC(=O)c3ccncc3)c2O[C@H]1CN(C)CC1CCCCC1
3.0	8.5	1.7	i	COc1ccc2c3c([nH]c2c1)[C@H](CO)N(C(=O)CN(C)C)CC31CN(CC2CCCC2)C1
4.7	4.3	-0.9	i	COCc1cn(CC[C@@H]2CC[C@H](NC(=O)Nc3c(C)noc3C)[C@H](CO)O2)nn1
1.4	1.6	0.2	i	C[C@@H]1CN([C@H](C)CO)C(=O)c2cc(-c3ccccc3F)cnc2O[C@H]1CN(C)Cc1ccc(F)cc1
4.0	7.4	2.5	i	CC(C)NC(=O)N[C@@H]1C=C[C@H](CC(=O)N2CCCCC2)O[C@H]1CO
-2.1	-0.9	-1.3	i	CC(=O)N1[C@@H]2c3ccc(-c4ccccc4)c(=O)n3C[C@H]1[C@H](CO)[C@H]2C(=O)Nc1ccccc1
-2.8	2.7	-4.9	i	C[C@@H](NC(=O)C[C@H]1C[C@H]2c3cc(NC(=O)c4cccnc4)ccc3O[C@H]2[C@H](CO)O1)c1ccccc1
4.4	1.3	2.3	i	COCC#Cc1ccc([C@H]2[C@@H](CO)N3CCCCN(C(=O)NC4CCCC4)C[C@H]23)cc1
2.3	2.6	4.1	i	C[C@H](CO)N1C[C@H](C)[C@@H](CN(C)C(=O)NC2CCCCC2)Oc2ccc(NC(=O)Nc3ccc(C(F)(F)F)cc3)cc2CC1=O
0.7	-1.4	-1.9	i	O=C(C[C@H]1CC[C@H](NC(=O)Nc2ccc3c(c2)OCO3)[C@@H](CO)O1)NCc1ccc2c(c1)OCO2
1.2	-3.6	-3.0	i	O=C(C[C@H]1CC[C@@H](NC(=O)CN2CCOCC2)[C@@H](CO)O1)NC1CCCCC1
-2.5	-3.2	0.2	i	COC(=O)C[C@H]1C[C@H]2c3cc(NS(=O)(=O)c4ccccc4)ccc3O[C@H]2[C@@H](CO)O1
0.2	0.5	-0.6	i	CC(=O)Nc1ccc2c(c1)C(=O)N(C)[C@@H]1CC[C@@H](CC(=O)NC3CCCCC3)O[C@@H]1CO2
7.8	8.0	3.4	i	COC(=O)[C@]12C[C@H](CC(=O)NCc3ccc(C)o3)C(=O)N(CCC3=CCCCC3)C1=C[C@H](C(C)(C)C)O[C@@H]2C
-0.5	0.5	0.9	i	O=C1CN(Cc2ccccc2)C[C@H]2[C@H](c3ccc(Br)cc3)[C@@H](CO)N12
10.8	-30.9	-3.3	i	C/C=C/c1ccccc1[C@H]1[C@@H](CO)N(C(=O)Nc2ccccc2)[C@H]1C#N
1.3	14.4	5.6	i	C[C@H]1CN([C@@H](C)CO)C(=O)c2cc(C#Cc3ccccc3F)cnc2O[C@H]1CN(C)C
19.8	6.3	2.3	i	CC1CCN(C(=O)c2[nH]cnc2C(=O)N(C)CCO)CC1

# Full records, quoted from the list. Screens in order: rRNA inh HTS, rRNA inh HTS OD600, rRNA inh HTS RFP, FGF22 binding
# `COc1ccc2c3c([nH]c2c1)[C@H](CO)N(C(=O)CN(C)C)CC31CN(CC2CCCC2)C1` is listed with 3.0, 8.5, 1.7, i
# `COc1cccc(C(=O)Nc2ccc3c(c2)C(=O)N(C)C[C@H](OC)[C@@H](C)CN(C)[C@@H](C)CO3)c1` is listed with -1.7, -3.2, -0.8, i
# `COc1ccccc1-c1cnc2c(c1)C(=O)N([C@H](C)CO)C[C@@H](C)[C@H](CN(C)Cc1ccc(C(=O)O)cc1)O2` is listed with -3.6, 5.4, -3.3, i
# `COc1ccc(S(=O)(=O)Nc2ccc3c(c2)C(=O)N([C@@H](C)CO)C[C@H](C)[C@@H](CN(C)S(=O)(=O)c2cccs2)O3)cc1` is listed with -2.3, -5.7, -0.3, i
# `C[C@H]1CN([C@@H](C)CO)C(=O)c2cccc(NS(=O)(=O)c3ccc(F)cc3)c2O[C@@H]1CN(C)C(=O)Nc1ccccc1` is listed with 1.5, 0.5, -0.1, i

# (cont.)
rRNA inh HTS	rRNA inh HTS OD600	rRNA inh HTS RFP	FGF22 binding	smiles
-3.0	-6.4	0.0	i	CC(C)NC(=O)N(C)C[C@H]1Oc2cc(-c3ccccc3F)ccc2S(=O)(=O)N([C@@H](C)CO)C[C@@H]1C
-0.1	1.7	-2.8	i	C[C@@H]1CN([C@@H](C)CO)C(=O)c2cc(-c3ccccc3F)cnc2O[C@@H]1CN(C)C(=O)C1CCC1
-6.0	-2.8	-1.7	i	O=C(CC(F)(F)F)N1C[C@@H]2[C@H](c3ccccc31)[C@@H](CO)N2C(=O)Cc1ccccc1
4.2	8.8	-3.0	i	C[C@@H]1CN([C@@H](C)CO)C(=O)c2cc(-c3ccc(C(=O)N(C)C)cc3)cnc2O[C@@H]1CN(C)C(=O)c1cccnc1
-4.3	-15.0	-1.3	i	CO[C@@H](CN(C)C(=O)Nc1ccc(Cl)cc1)[C@H](C)CN(Cc1ccccc1Cl)[C@H](C)CO
3.3	5.2	-2.1	i	C[C@@H](NC(=O)C[C@H]1C[C@@H]2c3cc(NC(=O)c4cccnc4)ccc3O[C@@H]2[C@H](CO)O1)c1ccccc1
1.3	-0.4	0.6	i	Cc1ccc(S(=O)(=O)N(C)C[C@H]2OCCCC[C@H](C)Oc3ccc(NS(=O)(=O)c4ccc(F)cc4)cc3C(=O)N([C@H](C)CO)C[C@H]2C)cc1
-5.3	1.4	0.5	i	Cc1ccc(S(=O)(=O)Nc2ccc3c(c2)CC(=O)N([C@H](C)CO)C[C@H](C)[C@@H](CN(C)S(=O)(=O)c2cccs2)O3)cc1
-0.2	-2.1	-2.2	i	COc1cccc(-c2ccc3n(c2=O)C[C@@H]2[C@@H](CO)[C@H](C(=O)NC4CCCC4)[C@H]3N2C)c1
1.0	7.2	-2.4	i	C[C@H](CO)N1C[C@H](C)[C@H](CN(C)Cc2ccc(C(F)(F)F)cc2)OCc2ccccc2-c2c(n(C)c3ccccc23)C1=O
3.8	6.4	-0.9	i	CN1C(=O)c2cc(NC(=O)C3CCOCC3)ccc2OC[C@@H]2O[C@H](CC(=O)NCc3ccccc3F)CC[C@H]21
0.2	14.9	3.7	i	CCC(=O)N1CCCCN2[C@@H](CO)[C@H](c3ccc(-c4cccnc4)cc3)[C@@H]2C1

# Screens: PubChem, Broad Institute
